HSV replic up: increases HSV replication in cells; 220,000 compounds, 0.005% hits; AID 1956; HSV replication augmentation in cells, fold increase; maximum fold increase;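 active = peak rise of 1.5-fold or more in the series; tested in PC3 cells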;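 also: first round at 10 µM; read as green reporter fluorescence; hits show the peak of a series up to 25 µM; 1 = signal of infected wells without compound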
INS promoter inh: TRM-6 insulin promoter activity inhibition; TRM-6 cells (human fetal islet line), insulin promoter-eGFP reporter, imaging; reporter expression induced with tamoxifen; inhibition, % at 2 µM; 130,000 compounds, 0.9% hits; AID 1273;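 active = inhibition above the mean plus 3 SD, with well images judged a real hit on visual review, cut at about 60% in these data, passing the limit was not always enough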
PKD1 inh: PKD1 (human) kinase inhibition | Q15139 | PKD1 kinase fluorescence polarization assay | inhibition, %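 (about 10 µM by stock and volumes)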 | 200,000 compounds, 0.056% hits | AID 797;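 active = inhibition of 50% or more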;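 also: controls were vehicle for no effect and a reference inhibitor for full effect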
Target sequence (Q15139 whole entry, looked up): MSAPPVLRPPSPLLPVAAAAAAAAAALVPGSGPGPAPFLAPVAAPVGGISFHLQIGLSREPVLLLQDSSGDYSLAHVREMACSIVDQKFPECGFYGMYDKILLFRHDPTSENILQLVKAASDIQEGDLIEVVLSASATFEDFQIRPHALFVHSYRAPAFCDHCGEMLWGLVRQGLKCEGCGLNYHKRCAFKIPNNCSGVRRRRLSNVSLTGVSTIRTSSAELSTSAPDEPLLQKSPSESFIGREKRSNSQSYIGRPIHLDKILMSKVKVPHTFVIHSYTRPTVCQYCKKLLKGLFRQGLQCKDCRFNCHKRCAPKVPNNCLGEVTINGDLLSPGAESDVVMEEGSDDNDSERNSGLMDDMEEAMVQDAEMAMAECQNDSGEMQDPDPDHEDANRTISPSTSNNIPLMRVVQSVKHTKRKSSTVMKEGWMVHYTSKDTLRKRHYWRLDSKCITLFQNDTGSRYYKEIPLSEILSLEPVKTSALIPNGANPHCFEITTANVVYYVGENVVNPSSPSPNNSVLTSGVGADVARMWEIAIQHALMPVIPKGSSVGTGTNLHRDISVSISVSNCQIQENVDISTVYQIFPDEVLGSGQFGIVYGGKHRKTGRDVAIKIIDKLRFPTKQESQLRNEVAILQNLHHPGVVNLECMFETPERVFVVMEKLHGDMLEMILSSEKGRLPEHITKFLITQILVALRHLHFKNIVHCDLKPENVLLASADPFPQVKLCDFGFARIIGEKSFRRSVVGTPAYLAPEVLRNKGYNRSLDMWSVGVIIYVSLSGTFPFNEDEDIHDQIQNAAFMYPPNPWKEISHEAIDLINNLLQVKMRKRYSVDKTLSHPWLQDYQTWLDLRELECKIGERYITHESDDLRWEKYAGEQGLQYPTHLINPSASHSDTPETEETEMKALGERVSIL
RGS16-Gao: RGS16-Galphao interaction regulator (human); O15492+P09471; bead-based flow cytometry RGS16-Galphao binding, fluorescence; actives lie on both sides; binding response (% of control), % at 10 µM; 220,000 compounds, 0.38% hits; AID 1441;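 active = below 25% or above 175%, edge rows of some plates excepted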;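 also: Galphao activated by GDP with aluminum fluoride before binding; 100% = wells without compound and 0% = beads without RGS; some results beyond the cut were filed as inactive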
GALR2 ag: GALR2 (human) receptor agonism; GALR2-expressing cells, agonist activation read-out; activation, %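 (tested at 5 µM)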; 140,000 compounds, 0.48% hits;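 active = above mean plus 3 SD of all compounds, about 5% in these data, not always enough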;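 also: 0% = vehicle buffer wells and 100% = reference agonist at full effect; tested in CHO reporter cells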
INS promoter inh cell count: further read-out of INS promoter inh, marked with its call; normalized cell count, %; measured here: cell count, toxicity; reference of the scale not given here;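 cells exposed to compound for 48 h; stained nuclei by imaging scaled within each plate; lower means fewer cells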
HSV replic up primary fold: recorded beside HSV replic up, whose call it bears; fold increase; compound at 10 µM; measured here: primary screen fold increase 10 uM; tested in PC3 cells;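 GFP signal in the first replicate; 1 = infected wells without compound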
Numbers without * were called inactive; i = inactive; · = no result given. The list is partial (hit frequency here may not be typical).

SMILES	HSV replic up	HSV replic up primary fold	INS promoter inh	INS promoter inh cell count	PKD1 inh	RGS16-Gao	GALR2 ag
N#CSCC(=O)N1c2ccccc2CCc2ccccc21	i	0.58	·	·	2	97	0.1
CC1CCCN(C(=O)c2ccc(N3CC4CC(C3)c3cccc(=O)n3C4)c([N+](=O)[O-])c2)C1 (centres undefined)	i	0.95	9	134	-19	102	0.0
O=C(c1ccccc1)c1cn(CC(=O)N2CCCc3ccccc32)c2ccccc12	i	0.89	-3	90	4	104	-1.8
Cc1ccc(-n2c(O)c(/C=N/N3CCCCC3c3cccnc3)c(=O)[nH]c2=S)cc1 (centres undefined)	i	1.1	-3	107	-2	96	-1.2
CCOC(=O)c1c(-n2c(C)cc(C=C3C(=O)NC(=O)NC3=O)c2C)sc2c1CCCC2	·	·	47	53	1	96	1.9
Nc1ccc(Cl)cc1C(=O)c1ccccc1Cl	·	·	-433	66	-4	89	-1.2
C=CCn1c(O)c(C(C)=NC(C)c2ccccc2)c(=O)[nH]c1=O (centres undefined)	i	1	·	·	·	101	·
COc1ccccc1CCNC1CCCC(C)C1 (centres undefined)	i	0.92	47	202	-10	99	-1.8
Cc1ccc(C2N(c3ccccn3)C(=O)C3CCCN32)o1 (centres undefined)	i	1.1	-7	65	-2	112	·
CCC(=NCCN1CCOCC1)c1c(O)n(C2CCCCC2)c(=O)[nH]c1=O	i	0.96	·	·	·	94	·
O=C1NC(=O)N(Cc2ccccc2Cl)C(=O)/C1=C/c1cccs1	i	0.96	35	79	-2	85	·
O=C1NC(=O)N(c2ccccc2)C(=O)/C1=C\c1ccc([N+](=O)[O-])s1	i	1.1	·	·	·	85	·
NC1C2CN3CCN(C2)CC1(c1ccccc1)C3 (centres undefined)	i	0.87	·	·	·	95	·
COc1ccc(CCNCc2cccc(C(F)(F)F)c2)cc1OC	i	1	-46	105	-3	98	·
CC1=CC(=C2C(=O)NC(=O)NC2=O)C=C(C(F)(F)F)N1Cc1ccccc1	i	0.91	·	·	-8	105	·
COc1cc(/C=C2/C(=O)NC(=O)N(c3ccc(C)cc3)C2=O)cc(OC)c1OC	i	1.1	·	·	·	96	·
OC(CNC1CCCCCCC1)c1ccccc1 (centres undefined)	i	0.91	·	·	-8	102	·
N#CC(c1ccccc1)N1CCOCC1 (centres undefined)	i	1	·	·	·	95	·
O=c1c2ccccc2nc(SCC2CCCCO2)n1-c1ccccc1 (centres undefined)	i	0.94	-367	153	-11	105	0.2
CCN1CCN(C(=O)COc2cc(=O)n(CC)c3ccccc23)CC1	i	1.1	-14	79	-10	103	-0.9
COc1ccc(-n2c(/C=C/c3ccc4c(c3)OCO4)nc3ccccc3c2=O)cc1	i	1	-12	84	2	101	0.0
COc1ccc(C2SCC(=O)Nc3c2c(C)nn3-c2ccccc2)cc1 (centres undefined)	i	0.89	-48	179	-5	102	-2.2
O=C(c1cc(F)ccc1F)C1CCCN(CCCc2ccccc2)C1 (centres undefined)	i	0.98	·	·	-2	100	·
O=C1NC(=O)N(c2ccc3c(c2)OCO3)C(=O)/C1=C/c1ccsc1	i	1.1	·	·	3	87	·
O=C(Cc1ccccc1)N1CCN(Cc2ccccn2)CC1	·	·	-271	98	-3	100	-0.5
O=C(c1ccc(-c2ccccc2)c(F)c1)C1CCCN(CCO)C1 (centres undefined)	i	0.9	-15	135	2	37	·
CC1=CC(=C2C(=O)NC(=O)NC2=O)C=C(C(F)(F)F)N1C(C)C	i	0.98	·	·	-15	98	-2.6
Cc1ccc(-c2nc3ccccc3c(=O)n2-c2cccc(C)n2)cc1	i	0.96	14	102	3	111	·
COC(=O)N(c1ccccc1)P1(=S)OCCO1	i	0.98	-7	77	-1	67	-1.0
CCCCCCC(=O)c1c(O)n(-c2ccc(OC)cc2)c(=O)[nH]c1=O (tested in a mixture with another compound)	i	0.91	·	·	·	103	·
CCCCCCn1c(O)c(C=Nc2c(C)n(C)n(-c3ccccc3)c2=O)c(=O)[nH]c1=O	i	1	·	·	-3	118	-1.5
CCC(=NCCc1ccccc1)c1c(O)n(C2CCCCC2)c(=O)[nH]c1=O	i	0.95	45	74	-12	97	-1.1
CC[C@@H](C(N)=O)N1CCCC1=O	i	0.82	·	·	·	100	·
CN1CCCC(C(O)(c2ccccc2)c2ccccc2)C1 (centres undefined)	i	1	·	·	·	104	·
CS(=O)(=O)N1CCN(C(=N)N[N+](=O)[O-])CC1	i	0.91	5	133	-7	105	·
CCOC(=O)c1c(C)n(CC(O)CN2CCOCC2)c2cc(Br)c(OC)cc12 (centres undefined)	i	1	24	116	-3	96	·

Exported as labelled records: part of the list above.
CC[C@@H](C(N)=O)N1CCCC1=O
  HSV replic up = i | HSV replic up primary fold = 0.82 | INS promoter inh = · | INS promoter inh cell count = · | PKD1 inh = · | RGS16-Gao = 100 | GALR2 ag = ·

O=C(c1ccc(-c2ccccc2)c(F)c1)C1CCCN(CCO)C1 (centres undefined)
  HSV replic up = i | HSV replic up primary fold = 0.9 | INS promoter inh = -15 | INS promoter inh cell count = 135 | PKD1 inh = 2 | RGS16-Gao = 37 | GALR2 ag = ·

CCC(=NCCc1ccccc1)c1c(O)n(C2CCCCC2)c(=O)[nH]c1=O
  HSV replic up = i | HSV replic up primary fold = 0.95 | INS promoter inh = 45 | INS promoter inh cell count = 74 | PKD1 inh = -12 | RGS16-Gao = 97 | GALR2 ag = -1.1

CCCCCCC(=O)c1c(O)n(-c2ccc(OC)cc2)c(=O)[nH]c1=O (tested in a mixture with another compound)
  HSV replic up = i | HSV replic up primary fold = 0.91 | INS promoter inh = · | INS promoter inh cell count = · | PKD1 inh = · | RGS16-Gao = 103 | GALR2 ag = ·

(further entries)
SMILES	HSV replic up	HSV replic up primary fold	INS promoter inh	INS promoter inh cell count	PKD1 inh	RGS16-Gao	GALR2 ag
Cc1ccc(N2C(=O)NC(=O)/C(=C\c3ccc(N4CCOCC4)cc3)C2=O)cc1	i	1.1	0	66	-10	98	-2.6
CC(C)c1ccc(-n2c(O)c(/C=N/NC(=O)c3ccccc3O)c(=O)[nH]c2=S)cc1	i	0.84	·	·	·	99	·
CCN1CCN(c2nc([N+](=O)[O-])nn2C)CC1	i	1	·	·	·	106	·
Cc1nc(CCl)cc(=O)[nH]1	i	1	·	·	-1	104	·
O=C(C1CC(=O)N(c2ccc(F)c(Cl)c2)C1)N1CCC2(CC1)OCCO2 (centres undefined)	i	0.84	19	80	-10	93	0.6
COc1ccc(C2C([N+](=O)[O-])=C(N)Oc3c2c(=O)oc2ccccc32)cc1 (centres undefined)	i	0.99	-18	111	-15	96	-0.1
O=c1[nH]c(=O)n(CCc2ccccc2)c(O)c1/C=N/N1CCOCC1	i	0.93	·	·	·	101	·
Cc1ccsc1C(=O)C1CCCN(Cc2cnn(C(C)C)c2)C1 (centres undefined)	i	1	·	·	-4	119	·
CCC(=NCC1CCCO1)c1c(O)n(Cc2ccccc2)c(=O)[nH]c1=O (centres undefined)	i	0.56	·	·	-10	107	-2.6
O=C1NC(=O)N(Cc2ccco2)C(=O)/C1=C/c1ccc(-c2cccc([N+](=O)[O-])c2)o1	i	1.1	59	90	-4	14	0.7
O=[N+]([O-])c1cccc(CN2CCN(Cc3ccc(Cl)cc3)CC2)c1	i	1.1	·	·	3	101	·
COc1ccc(Cl)cc1C(=O)C1CCCN(CCO)C1 (centres undefined)	i	0.94	·	·	-3	108	·
COc1cccc(O)c1CN1CCCC(C(=O)c2sccc2C)C1 (centres undefined)	i	0.83	·	·	1	104	·
O=c1[nH]c(=S)[nH]c(O)c1N=Nc1ccc2c(c1)OCO2	i	1	-11	169	3	99	·
COc1ccc(/C=C/C(=O)c2c(O)n(CCC3=CCCCC3)c(=O)[nH]c2=O)cc1OC	i	0.82	·	·	·	103	·
COc1ccc(OC)c(C(c2c(O)c3ccccc3oc2=O)c2c(C)n(C)n(-c3ccccc3)c2=O)c1 (centres undefined)	i	0.98	25	113	8	102	·
CN1CCN(c2ccc([N+](=O)[O-])c(NCC3CCCO3)c2)CC1 (centres undefined)	i	1	·	·	-13	98	0.5
O=C1NC(=S)NC(=O)C1=Cc1cccn1-c1ccc(O)cc1	i	0.85	60	111	1	87	·
CCC(=O)N1CC(=O)Nc2ccc(F)cc2C1c1ccccc1 (centres undefined)	i	0.88	·	·	13	101	-0.6
COc1cc(-n2c(=S)[nH]c3ccc(C)cc3c2=O)c(Cl)cc1Cl	i	0.63	33	66	-2	102	·
O=C(c1cccs1)N1C2CCC1CC(O)(c1cccnc1)C2 (centres undefined)	i	0.96	·	·	9	99	-2.5
CCN(CC)CCNCC(=O)Nc1ccc(Cl)cc1C(=O)c1ccccc1	i	1	-46	83	-7	92	1.0
COc1ccc(C(CC(=O)N2CCC3(CC2)OCCO3)NS(=O)(=O)c2ccc(F)cc2)cc1 (centres undefined)	i	0.89	·	·	-2	75	-2.0
CCOC(=O)c1nc2ccccc2c(=O)n1-c1cccc(C)c1	i	0.92	11	140	-12	88	-3.1
Cc1ncc(CN2CCCC(C(=O)c3cccc(Cl)c3)C2)s1 (centres undefined)	i	1	-162	74	-4	109	·
CCCCCc1nc2ccccc2c(=O)n1-c1ccccc1[N+](=O)[O-]	i	0.99	-11	86	-8	119	-0.9
CC1CCC(C(C)C)C(OC(=O)Cn2c(COc3ccccc3)[n+](C)c3ccccc32)C1 (centres undefined)	i	0.63	·	·	·	101	·
C(=N\NC1=NCCCCC1)/c1c[nH]c2ccccc12	i	0.88	·	·	·	91	·
CN(C(=O)c1ccc(Cl)nc1)C1(c2ccccc2Cl)CCCCC1=O (centres undefined)	i	0.97	-75	131	-4	101	·
O=C1CN(C(=O)CN2CCCCC2)C(c2ccccc2)c2cc(Br)ccc2N1 (centres undefined)	i	0.87	-47	61	-9	100	0.0
O=C(c1cc(-c2ccccc2)on1)N1CCC2(CC1)OCCO2	i	1	0	121	5	100	·
CNS(=O)(=O)c1ccc(N=Cc2c(O)n(-c3cccc(C)c3)c(=O)[nH]c2=O)cc1	i	1.1	·	·	-8	105	·
CC(C)CC12CN3CCN(CC(C3)/C1=N/O)C2	i	0.88	-42	141	0	104	-3.4
Clc1ccccc1Nc1ncnc(-n2cccc2)n1	i	1	-7	107	-7	98	-1.9
O=C(COC(=O)c1cccc(O)c1)Nc1ccc(Cl)cc1C(=O)c1ccccc1	i	1.1	·	·	-6	77	-0.9
CCc1ccc(CNCCc2ccc(F)cc2)cc1	i	0.91	0	119	-3	96	-1.0

Given bar-delimited: four of the compounds above
Molecule | HSV replic up | HSV replic up primary fold | INS promoter inh | INS promoter inh cell count | PKD1 inh | RGS16-Gao | GALR2 ag
CN(C(=O)c1ccc(Cl)nc1)C1(c2ccccc2Cl)CCCCC1=O (centres undefined) | i | 0.97 | -75 | 131 | -4 | 101 | ·
O=C1CN(C(=O)CN2CCCCC2)C(c2ccccc2)c2cc(Br)ccc2N1 (centres undefined) | i | 0.87 | -47 | 61 | -9 | 100 | 0.0
O=C(c1cc(-c2ccccc2)on1)N1CCC2(CC1)OCCO2 | i | 1 | 0 | 121 | 5 | 100 | ·
CNS(=O)(=O)c1ccc(N=Cc2c(O)n(-c3cccc(C)c3)c(=O)[nH]c2=O)cc1 | i | 1.1 | · | · | -8 | 105 | ·

Other structures:
SMILES	HSV replic up	HSV replic up primary fold	INS promoter inh	INS promoter inh cell count	PKD1 inh	RGS16-Gao	GALR2 ag
c1cncc(CNCCc2c[nH]c3ccccc23)c1	i	0.91	·	·	-3	106	·
COc1cc2c(cc1OC)C(c1c(O)n(CCc3ccccc3)c(=S)[nH]c1=O)NCC2 (centres undefined)	i	1.2	·	·	·	104	·
O=C1NC(=O)C(=Cc2cn(CCOc3ccc4c(c3)OCO4)c3ccccc23)C(=O)N1	i	0.89	56	97	6	78	-0.3
C=CCn1c(O)c(C(CC)=Nc2cc(OC)ccc2OC)c(=O)[nH]c1=O	i	0.84	·	·	-10	100	-3.4
COc1ccc(CCNC(=O)c2c(N)n(CCN3CCOCC3)c3nc4ccccc4nc23)cc1	i	0.85	·	·	-4	110	7.2
CC1CN=C(Nc2ccc(F)cc2)S1 (centres undefined)	i	0.9	33	215	-4	108	·
CC(c1ccccc1F)n1cc(C(=O)Nc2ccc3nc[nH]c3c2)nn1 (centres undefined)	i	1	64	81	-1	98	0.0
C[C@@]1(CO)[C@H](O)CC[C@@]2(C)[C@H]1CC[C@H]1C[C@@H]3C[C@@]12CC[C@]3(O)CO	i	0.53	55	51	-11	101	-0.3

Screens as filed in PubChem BioAssay.
